AF4-AF9 inh = MLL-AF4/AF9 protein interaction inhibition; P42568; AlphaScreen, biotin-AF4 peptide binding to FLAG-AF9; inhibition, % at 10 µM; hit rate 0.47% among 350,000; AID 651704;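 active = every replicate reaching a set inhibition limit, whatever the replicate mean, cut at about 25% in these data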;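 note: 0% = plate neutral control median and 100% = total signal loss; the record names both 10 and 1 µM as test concentration; the first replicate is given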
Target sequence (P42568 whole entry, looked up): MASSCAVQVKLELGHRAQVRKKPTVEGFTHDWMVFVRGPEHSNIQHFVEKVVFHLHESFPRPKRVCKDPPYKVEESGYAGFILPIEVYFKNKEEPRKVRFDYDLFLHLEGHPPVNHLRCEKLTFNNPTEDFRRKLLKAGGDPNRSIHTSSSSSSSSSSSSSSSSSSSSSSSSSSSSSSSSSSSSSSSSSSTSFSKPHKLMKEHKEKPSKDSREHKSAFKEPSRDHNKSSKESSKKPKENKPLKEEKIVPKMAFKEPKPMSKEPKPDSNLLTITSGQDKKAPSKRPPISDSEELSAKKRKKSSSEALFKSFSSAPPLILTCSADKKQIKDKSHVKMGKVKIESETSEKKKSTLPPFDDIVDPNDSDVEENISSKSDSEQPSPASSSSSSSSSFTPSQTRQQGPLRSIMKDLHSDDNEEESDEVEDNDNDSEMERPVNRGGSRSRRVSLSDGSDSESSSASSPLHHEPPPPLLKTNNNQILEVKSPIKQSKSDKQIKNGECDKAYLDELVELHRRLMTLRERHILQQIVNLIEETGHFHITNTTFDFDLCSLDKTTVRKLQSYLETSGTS
rRNA inh HTS = inhibitors of bacterial rRNA selective over humanized ribosomes; E. coli WT GFP vs humanized-ribosome RFP mutants, fluorescence, 24 h; stronger effect = lower value; DMSO median 0, no signal -100; GFP signal change (wild-type ribosome), % (test concentration not listed); hit rate 1.6% among 350,000;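 active = significant combined selectivity score with lowered wild-type GFP, culture density cut under 30%, mutant RFP and density less affected; inactive = any of these conditions unmet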; note: one replicate is shown; some compounds called inactive have numbers as strong as hits
rRNA inh HTS OD600 = second read-out of rRNA inh HTS, no call of its own (marks repeat the call); OD600 change, %; measured here: OD600 growth;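 optical density of the mix in the first replicate; 0 = DMSO median and -100 = no signal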
rRNA inh HTS RFP = recorded beside rRNA inh HTS, whose call it bears; RFP signal change, %; measured here: RFP humanized mutant strains;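 first replicate; 0 = DMSO median and -100 = no signal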
Starred values were filed as active, the others as inactive; & = joins results of further samples.

SMILES	AF4-AF9 inh	rRNA inh HTS	rRNA inh HTS OD600	rRNA inh HTS RFP
CC(=O)C[C@@H]1OC[C@H](Cc2ccccc2)N1S(=O)(=O)c1ccc(C)cc1	-1.2	-28.0*	-21.6*	3.3*
CCCC(=O)N1CC2(C1)CN(C(=O)Nc1ccc(F)cc1)[C@@H](CO)c1c2c2ccc(OC)cc2n1C	0.4	-1.2	-8.7	7.1
O=C(c1cccnc1)N1CC2(C1)[C@H](c1ccccc1)[C@@H](CO)N2C(=O)CC1CC1	-2.1	-2.3	0.1	-0.1
COc1ccc2c(c1)C(CC(C)=O)N(c1ccc(-c3cnc(OC)nc3)cc1)C(c1ccsc1)=C2 (configuration not stated)	0.2	4.6	2.2	5.7
C[C@H](CO)N1C[C@H](C)[C@H](CN(C)Cc2ccc(C(=O)O)cc2)Oc2c(cccc2N(C)C)C1=O	0.2	3.3	16.0	-1.8
O=C(C[C@@H]1CC[C@H](NS(=O)(=O)c2ccc(F)cc2)[C@@H](CO)O1)NCc1ccc(Cl)c(Cl)c1	1.6	-11.6	-19.4	2.7
CCOC(=O)c1ccc(-n2cnc(-c3ccc([N+](=O)[O-])cc3)c2)cc1	11.8	1.0	18.7	2.1
CNC(=O)C[C@H]1CC[C@H]2[C@@H](COc3ccc(NC(=O)c4cccc(F)c4)cc3C(=O)N2C)O1	0.1	1.9	-9.7	2.7
CSCCC(NC(=O)c1ccccc1Cl)C(=O)NCC(c1ccc(F)cc1)N1CCOCC1 (configuration not stated)	-0.7	3.1	7.9	-4.1
CCCC#Cc1ccc([C@H]2[C@@H](CO)N3C(=O)CN(C(=O)Cc4cccnc4)C[C@H]23)cc1	-0.7	2.2	13.0	-0.9
CCCNC(=O)c1cc2c(c(-c3cccc(-c4cccc(F)c4)c3)n1)[C@@H](CCO)N([S@](=O)C(C)(C)C)C2	7.1	-41.2	-54.9	23.8
Cc1ccc(F)cc1-c1nc(NCC2CC2)nc2ccsc12	-0.7	-37.5	-56.1	-12.6
CN(C(=O)c1cccc(NC(=O)Cc2ccc(NC(=O)C3CCCN(C(=O)CCc4ccccc4)C3)cc2)c1)C1CC1 (configuration not stated)	1.3	-10.0	1.4	-1.0
CN1OC[C@@H]2CN[C@H](c3cccc(-c4ccc(C#N)cc4)c3)C[C@@H]21	2.5	17.9	11.2	4.2
COc1ccc(NC(=O)N2C[C@H](O)COC[C@@H]3O[C@@H](CC(=O)NCc4ccccc4OC)CC[C@H]32)cc1	-0.6	-1.9	-2.5	-1.3
CC1=C(C(=O)N(C)C)CC(CC(=O)NCc2cccs2)C(=O)N1Cc1ccc(C(C)(C)C)cc1 (configuration not stated)	-1.2	-6.0	-1.6	4.9
CO[C@@H]1CN(C)C(=O)c2ccc(NC(=O)C3CC3)cc2OC[C@@H](C)N(C(=O)CN2CCOCC2)C[C@H]1C	0.5	3.4	3.7	0.3
C[C@@H]1CCCCO[C@H](CN(C)C(=O)Nc2ccc3c(c2)OCO3)[C@H](C)CN([C@H](C)CO)C(=O)c2cc(NC(=O)c3ccncc3)ccc2O1	-0.8	-2.0	-4.6	-1.1
CCOC(=O)[C@]12CCC=C1N(Cc1ccc3c(c1)OCO3)C(=O)[C@H](CC(=O)NCCC(C)C)C2	-1.0	-26.2	-58.4	-0.1
CC(C)NC(=O)N(C)C[C@@H]1Oc2ncc(-c3ccccc3F)cc2C(=O)N([C@@H](C)CO)C[C@@H]1C	-2.0	3.1	0.3	-1.1
COc1cccc(-c2cn(CC[C@H]3CC[C@@H](NC(=O)CC4CC4)[C@@H](CO)O3)nn2)c1	-0.2	-1.6	-6.5	1.3
CN(C)CCCNC(=O)C[C@H]1CC[C@H](NS(=O)(=O)c2ccccc2)[C@@H](CO)O1	-0.7	3.2	0.7	0.9
Cc1ccc(S(=O)(=O)N(C)C[C@H]2Oc3cc(C#Cc4ccccc4)ccc3S(=O)(=O)N([C@H](C)CO)C[C@H]2C)cc1	-1.4	0.4	4.0	-0.9
O=C(C[C@H]1CC[C@@H]2[C@H](COC[C@H](O)CN2C(=O)Nc2ccc(C(F)(F)F)cc2)O1)NCC1CC1	0.8	0.3	10.8	-2.3
CC(=O)N1CC2(C1)[C@H](c1ccc(-c3cccc(F)c3)cc1)[C@@H](CO)N2CC1CCOCC1	-0.4	-4.1	-11.1	3.9
CC(=O)Nc1ccc(C(=O)N2CCCC(c3cc(C(=O)NCc4ccccc4)no3)C2)cc1 (configuration not stated)	-3.1	1.7	9.7	-0.1
COc1ccccc1-c1ccccc1[C@H]1[C@@H](C#N)N(C(=O)C2CC2)[C@H]1CO	-2.1	3.0	10.1	-3.4
CO[C@H]1CN(C)C(=O)c2cc(NC(=O)Nc3cccc(F)c3)ccc2OC[C@@H](C)N(C)C[C@H]1C	1.9	-1.2	1.1	-1.0
O=C(CCN1CCCCC1)NCC[C@@H]1CC[C@@H](NC(=O)C2CC2)[C@@H](CO)O1	-1.7	2.8	6.2	0.7
Cc1cccc(C)c1NC(=O)C(c1ccccc1)n1c(-c2ccccc2)nc2ccccc21 (configuration not stated)	0.6	-7.5	-20.9	-11.7
C#CCN(C[C@@H]1[C@@H](OC(=O)Nc2cccs2)[C@@H](OC(=O)Nc2cccs2)C[C@H](C(=O)OC)[C@@H]1C(=O)OC)S(=O)(=O)c1ccc(C)cc1	-2.0	0.8	5.9	2.6
CC(=O)N1CCN(C(=O)CNC(=O)c2ccc(C)s2)CC1	-0.9	6.7	1.8	-1.7
CC(C)NC(=O)Nc1cccc2c1O[C@H](CN(C)S(=O)(=O)c1ccc(F)cc1)[C@H](C)CN([C@@H](C)CO)C2=O	-4.6	0.7	3.5	-1.8
C[C@H](CO)N1C[C@H](C)[C@@H](CN(C)CC2CC2)Oc2ccc(NS(=O)(=O)c3cccs3)cc2CC1=O	-0.3	1.2	14.0	-0.4
CC(=O)NC[C@H]1[C@@H](c2ccc(-c3cccnc3)cc2)[C@H](CO)N1C(=O)C1CC1	-0.3	0.3	0.7	-2.3
C[C@@H]1CN([C@H](C)CO)S(=O)(=O)c2ccc(-c3cccc(F)c3)cc2O[C@@H]1CN(C)C(=O)C1CC1	0.8	-7.1	-19.9	1.2
C[C@H](CO)N1C[C@H](C)[C@H](CN(C)Cc2ccc(C(=O)O)cc2)Oc2ccc(NC(=O)C3CCCCC3)cc2CC1=O	-2.5	1.8	0.4	-1.7
CC(C)CC#Cc1ccc([C@@H]2[C@@H](CO)N3C(=O)CN(C(=O)Nc4ccc(F)cc4)C[C@H]23)cc1	5.9	-51.0	-62.2	-4.1
CCCC(=O)Nc1ccc2c(c1)C(=O)N(C)C[C@H](OC)[C@@H](C)CN(C(=O)CN(C)C)[C@H](C)CO2	-4.7	1.3	-3.0	0.1
CCCN(C)C[C@H]1Oc2ncc(Br)cc2C(=O)N([C@H](C)CO)C[C@H]1C	-2.0	1.1	2.5	-3.4

Some of the entries so far, in markdown:
| mol | AF4-AF9 inh | rRNA inh HTS | rRNA inh HTS OD600 | rRNA inh HTS RFP |
| --- | --- | --- | --- | --- |
| C[C@H](CO)N1C[C@H](C)[C@H](CN(C)Cc2ccc(C(=O)O)cc2)Oc2c(cccc2N(C)C)C1=O | 0.2 | 3.3 | 16.0 | -1.8 |
| O=C(C[C@@H]1CC[C@H](NS(=O)(=O)c2ccc(F)cc2)[C@@H](CO)O1)NCc1ccc(Cl)c(Cl)c1 | 1.6 | -11.6 | -19.4 | 2.7 |

Remaining list, next part
SMILES	AF4-AF9 inh	rRNA inh HTS	rRNA inh HTS OD600	rRNA inh HTS RFP
C[C@@H]1CN([C@H](C)CO)C(=O)c2cccc(NC(=O)CCCCCC(=O)Nc3ccccc3N)c2O[C@@H]1CN(C)S(=O)(=O)c1ccccc1	-2.4	3.6	2.3	-1.4
Cc1noc(C)c1S(=O)(=O)N(C)C[C@H]1OCCCC[C@@H](C)Oc2ccc(NC(=O)Cc3ccccc3)cc2C(=O)N([C@@H](C)CO)C[C@@H]1C	0.3	-1.0	-7.5	0.4
Cc1cc(C(=O)Nc2cccc3c2O[C@@H](CN(C)C(=O)Nc2ccc(C(F)(F)F)cc2)[C@@H](C)CN([C@H](C)CO)C3=O)n(C)n1	-1.5	-5.3	-8.9	-0.8
Cc1noc(C)c1S(=O)(=O)N(C)C[C@@H]1OCCCC[C@H](C)Oc2ccc(NC(=O)Nc3ccc(F)cc3)cc2C(=O)N([C@H](C)CO)C[C@@H]1C	-1.8	1.6	10.8	2.4
Cc1cccc(C=NNc2cc(C)c3cccc(C)c3n2)n1	25.1*	-4.9	-3.3	0.5
Cc1ccccc1S(=O)(=O)N1[C@@H]2CNC[C@H]1C2c1ccc(-c2cccc(C#N)c2)cc1 (some centres not stated)	-4.3&-6.4	-57.8&-1.5	-75.3&-10.3	-7.1&1.9
CN1[C@@H]2c3ccc(-c4ccccc4)c(=O)n3C[C@H]1[C@H](CO)[C@H]2C(=O)N1CCC(Cc2ccccc2)CC1	-0.6	-2.0	-7.6	2.9
COCC(=O)Nc1ccc2c(c1)C(=O)N(C)[C@H]1CC[C@H](CC(=O)Nc3ccccc3)O[C@H]1CO2	-0.3	4.8	7.4	-2.2
CN1c2ccc(C3=CCCCC3)cc2[C@@H]2[C@@H](CCN2C(=O)NC2CCCC2)[C@H]1CO	20.5	-7.1	9.6	12.2
CN(C)CCCNC(=O)[C@@H]1[C@@H](CO)[C@@H]2Cn3c(ccc(-c4cccnc4)c3=O)[C@H]1N2C(=O)CC1CC1	-4.8	-0.4	6.5	0.0
COc1ccc(-c2cc3c(o2)CCCC3OCCN2CCOCC2)cc1 (configuration not stated)	4.1	0.8	-4.7	3.8
Cc1cc(C)cc(C(O)c2ncc(-c3ccccc3C)[nH]2)c1 (configuration not stated)	3.8	-10.1	-50.2	25.3
O=c1oc(=S)oc2c1[C@H](c1ccc(Cl)cc1)O[C@H](C1CC1)C2	3.1	-42.5*	-20.6*	-2.7*
CC(C)C#Cc1ccc2c(c1)O[C@@H](CN(C)S(C)(=O)=O)[C@@H](C)CN([C@H](C)CO)S2(=O)=O	1.3	-4.7	-10.7	-2.4
CN1C(=O)N(CC(=O)c2ccc3c(c2)OCO3)C(=O)C12CCCCC2	0.7	3.5	7.5	0.2
CN1C(=O)c2cc(NC(=O)c3ccc(F)cc3)ccc2OC[C@@H]2O[C@@H](CC(=O)NCC3CC3)CC[C@@H]21	-1.3	2.7	-7.5	-1.4
CN(C)CC(=O)Nc1ccc2c(c1)[C@@H]1C[C@H](CC(=O)NCc3cccnc3)O[C@@H](CO)[C@@H]1O2	-0.9	2.8	7.4	-3.4
Cc1cnc(-c2nc3ccccc3n2C(C(=O)NC(C)(C)C)c2cc3ccccc3o2)cn1 (configuration not stated)	6.0	-14.5	-41.7	6.3
O=C(Nc1ccccc1Cl)c1cc(C2CCCCN2C(=O)CCc2ccccc2)on1 (configuration not stated)	0.9	-5.7	-3.4	2.8
CN1C(=O)c2cc(NC(=O)c3ccccc3)ccc2OC[C@@H]2O[C@@H](CC(=O)O)CC[C@@H]21	-0.8	-1.1	8.5	2.2

Reprinted from the part before: three compounds, then new ones.
SMILES	AF4-AF9 inh	rRNA inh HTS	rRNA inh HTS OD600	rRNA inh HTS RFP
Cc1cnc(-c2nc3ccccc3n2C(C(=O)NC(C)(C)C)c2cc3ccccc3o2)cn1 (configuration not stated)	6.0	-14.5	-41.7	6.3
O=C(Nc1ccccc1Cl)c1cc(C2CCCCN2C(=O)CCc2ccccc2)on1 (configuration not stated)	0.9	-5.7	-3.4	2.8
CN1C(=O)c2cc(NC(=O)c3ccccc3)ccc2OC[C@@H]2O[C@@H](CC(=O)O)CC[C@@H]21	-0.8	-1.1	8.5	2.2
O=C(OCc1ccccc1)N1CCC2CC1c1ccc(N3CCN(Cc4ccc5c(c4)OCO5)CC3)cc12 (configuration not stated)	6.7	5.1	3.7	8.1
C[C@H](CO)N1C[C@H](C)[C@H](CN(C)CC2CCCCC2)OCCCC[C@H](C)Oc2ccc(NC(=O)CCCN(C)C)cc2C1=O	9.3	0.8	2.9	2.8
O=C(c1cccnc1)N1C[C@H]2[C@@H](c3ccccc31)[C@@H](CO)N2C(=O)C1CCCC1	-3.8	3.0	15.8	-4.8
C[C@@H]1CCCCO[C@H](CN(C)S(C)(=O)=O)[C@H](C)CN([C@@H](C)CO)C(=O)c2cc(NS(=O)(=O)c3ccc(F)cc3)ccc2O1	0.4	-0.5	1.7	-2.8
C[C@@H]1CN([C@@H](C)CO)C(=O)c2cc(C#CCc3ccccc3)cnc2O[C@H]1CN(C)C(=O)Cc1cccnc1	-21.7	-3.1	0.7	-0.1
C[C@H]1CN([C@@H](C)CO)C(=O)c2cc(-c3ccncc3)cnc2O[C@H]1CN(C)C(=O)C1CCOCC1	-9.0	5.3	2.9	-1.6
CC(C)NC(=O)C1(C)CSCC(=O)N1CCOc1ccccc1 (configuration not stated)	1.0	3.4	-4.9	-3.9
C[C@@H]1CN([C@@H](C)CO)C(=O)c2cc(NC(=O)Nc3ccc(C(F)(F)F)cc3)ccc2O[C@@H]1CN(C)Cc1ccc2c(c1)OCO2	7.1	-25.5	-51.0	14.8
COc1ccc(S(=O)(=O)Nc2ccc3c(c2)C(=O)N([C@H](C)CO)C[C@H](C)[C@H](CN(C)Cc2ccc4c(c2)OCO4)OCCCC[C@@H](C)O3)cc1	1.5	3.9	-3.2	1.2
Cc1ccccc1-c1ccc(C2[C@H]3CNC[C@@H]2N3S(=O)(=O)c2cn(C)cn2)cc1 (some centres not stated)	-4.6&-4.3	6.3&0.5	7.8&13.4	0.0&1.2

Screening results as filed in PubChem.

Not all compounds are listed; count on the stated rates, not on these rows.
